Screens as filed in PubChem BioAssay.
VCAM-1 up imaging: enhancers of VCAM-1 display on endothelial cells, imaging, high-content imaging, pooled HUVEC, TNFa stimulus (AID 457) | Pooled HUVEC, TNFa-induced VCAM-1 immunofluorescence imaging; hits of this screen are not shown here | calls only | 10,000 tested, 0.2% active;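 active = a top-ranked rise in VCAM-1 staining upheld on image or statistical review; inactive = the rest, including candidates rejected on review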;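 note: compounds tested at 5 µM in the well; cells exposed to compound for 24 hours before fixing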
VCAM-1 inhibition: inhibitors of TNFa-induced VCAM-1 surface display, cell-based, plate reader, pooled HUVEC, TNFa stimulus (AID 454). inhibition, % at 5 µM. HUVEC TNFa-induced VCAM-1 surface immunofluorescence, plate reader; numbers were filed only for top-ranked candidate wells. 10,000 tested, 0.2% active;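 active = compound among top-ranked inhibitors of TNF-induced VCAM-1 adhesion protein staining, with the hit upheld by image or statistical review; inactive = the rest, including hits rejected on review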;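 note: 0% = TNFa with vehicle and 100% = cells without TNFa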
VCAM-1 imaging: inhibitors of TNFa-induced VCAM-1 surface display, imaging, high-content imaging, pooled HUVEC, TNFa stimulus (AID 456); HUVEC TNFa-induced VCAM-1 surface expression, immunofluorescence imaging; numbers were filed only for top-ranked candidate wells; one-dose inhibition, % at 5 µM; IC50 in µM for titrated hits; 10,000 tested, 0.2% active;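 active = top tenth filtered wells with inhibition above zero that passed visual or statistical confirmation; inactive = the rest, including hits rejected on review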;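 note: 0% = stimulated vehicle wells and 100% = unstimulated cells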
FPR binder: human FPR ligands by binding competition, primary screen, cell-based, FPRL1 counter-screen, flow cytometry; FPR-expressing cells, fluorescent ligand binding; inhibition, %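 (tested at 6.7 µM)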; 24,000 tested, 0.74% active;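 note: 0% = buffer wells and 100% = receptor blocker peptide wells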
Target sequence (P21462 whole entry, looked up): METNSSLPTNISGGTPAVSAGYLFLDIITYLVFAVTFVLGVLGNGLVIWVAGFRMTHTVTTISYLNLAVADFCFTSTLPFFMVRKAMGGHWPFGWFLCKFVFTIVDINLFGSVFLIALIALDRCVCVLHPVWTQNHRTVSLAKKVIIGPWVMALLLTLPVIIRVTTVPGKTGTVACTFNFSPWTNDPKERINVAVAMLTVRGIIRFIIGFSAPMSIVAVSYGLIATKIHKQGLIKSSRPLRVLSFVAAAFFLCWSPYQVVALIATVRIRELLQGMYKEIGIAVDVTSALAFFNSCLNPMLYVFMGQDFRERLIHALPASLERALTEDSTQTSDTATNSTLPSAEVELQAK
FPRL1 ligand: human FPRL1 ligands by binding competition, primary screen, cell-based, FPR counter-screen, flow cytometry; N-formyl peptide receptor 2 (Homo sapiens), P25090; FPRL1-expressing cells, fluorescent ligand binding inhibition; inhibition, %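 (tested at 6.7 µM)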; 24,000 tested, 0.3% active; AID 441, 2006;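 note: 0% = buffer alone and 100% = receptor blocker peptide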
Target sequence (P25090 whole entry, looked up): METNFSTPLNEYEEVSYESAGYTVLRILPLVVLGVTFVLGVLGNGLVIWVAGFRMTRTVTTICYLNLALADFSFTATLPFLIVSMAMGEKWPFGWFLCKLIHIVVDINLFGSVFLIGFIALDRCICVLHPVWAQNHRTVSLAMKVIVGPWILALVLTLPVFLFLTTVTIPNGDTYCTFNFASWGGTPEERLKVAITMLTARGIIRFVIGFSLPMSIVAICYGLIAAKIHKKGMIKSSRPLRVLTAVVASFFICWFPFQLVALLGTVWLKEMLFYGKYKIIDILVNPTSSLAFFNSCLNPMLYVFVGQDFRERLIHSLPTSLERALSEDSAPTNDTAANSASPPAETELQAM
* = called active by the depositor; i = inactive; . = no result given.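 Rule for the calls, unless noted: active = mean above 30%; inconclusive = self-fluorescent; inactive = the rest.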 Some of the compounds tested; the hit share may differ from the screen's.

SMILES | VCAM-1 up imaging | VCAM-1 inhibition | VCAM-1 imaging | FPR binder | FPRL1 ligand
Cc1ccccc1CS(=O)(=O)CCC(=O)NCCN1CCN(c2cccc(Cl)c2)CC1 | . | . | . | -1 | -6
CCOc1ccc(C(c2nnnn2Cc2ccccc2)N2CCN(C(=O)c3ccco3)CC2)cc1 (stereo unspecified) | i | i | i | 1 | 2
C=CCn1c(SCC(=O)Nc2ccc(C(=O)OCC)cc2)nnc1-c1cccs1 | . | . | . | 4 | 1
CN(C)C(=O)CSc1nnc2sc3ccccc3n12 | i | i | i | 3 | -3
COC(=O)c1ccc(Cn2cnc3c(cnn3-c3ccc(Cl)cc3)c2=O)o1 | . | . | . | 2 | -4
CCOC(=O)Cn1c(=O)oc2cc(S(=O)(=O)N3CCCc4ccccc43)ccc21 | . | . | . | -9 | -13
OC(c1ccccn1)c1c[nH]c2ccccc12 (stereo unspecified) | . | . | . | 11 | 2
O=C(NCCSCc1ccccc1)c1cc(S(=O)(=O)N2CCOCC2)ccc1F | . | . | . | 4 | 4
N#CCc1nc(CSc2nc3ccccc3s2)cs1 | i | i | i | -2 | -2
CCOC(=O)CSc1nnc(NC(=O)c2cccc(S(=O)(=O)N3CCCCC3)c2)s1 | i | i | i | -6 | -2
Cc1ccc(C2/C(=C(\O)c3c(C)nc4ccccn34)C(=O)C(=O)N2CCCN2CCOCC2)o1 (stereo unspecified) | . | . | . | -11 | 0
O=C(CSc1n[nH]c(-c2ccco2)n1)Nc1sc2c(c1C(=O)Nc1ccccc1)CCCC2 | i | i | i | 1 | 6
CC(C)N(Cc1nc(-c2ccccc2)no1)S(=O)(=O)c1ccccc1 | . | . | . | -2 | 3
Cc1ccc(CN2C(=O)CCC2C(=O)NCCCN2CCOCC2)cc1 (stereo unspecified) | . | . | . | -1 | -5
Cc1cccc(-n2c(CNC(=O)c3ccc(S(=O)(=O)N4CCCC4)cc3)n[nH]c2=S)c1 | . | . | . | -4 | 0
CCn1cc(C(=O)Nn2cnnc2)c(=O)c2ccc(C)nc21 | . | . | . | 1 | 3
Cc1cc(=O)oc2c(CN3CCN(C)CC3)c(O)c(Cl)cc12 | i | i | i | 2 | 8
COCCOC(=O)c1c(C)oc2ccc(NS(=O)(=O)c3ccc(F)cc3)cc12 | i | i | i | 4 | 1
CCN(CCCNC(=O)CCNC(=O)Cn1cnc2ccccc2c1=O)c1ccccc1 | . | . | . | 1 | 2
CCCC(CCC)n1[nH]c(=O)c2c(C)cc(C)nc21 | i | i | i | -3 | 10

Quoted at random: six compounds from above.
SMILES | VCAM-1 up imaging | VCAM-1 inhibition | VCAM-1 imaging | FPR binder | FPRL1 ligand
CCCC(CCC)n1[nH]c(=O)c2c(C)cc(C)nc21 | i | i | i | -3 | 10
CCn1cc(C(=O)Nn2cnnc2)c(=O)c2ccc(C)nc21 | . | . | . | 1 | 3
Cc1cc(=O)oc2c(CN3CCN(C)CC3)c(O)c(Cl)cc12 | i | i | i | 2 | 8
CC(C)N(Cc1nc(-c2ccccc2)no1)S(=O)(=O)c1ccccc1 | . | . | . | -2 | 3
CCN(CCCNC(=O)CCNC(=O)Cn1cnc2ccccc2c1=O)c1ccccc1 | . | . | . | 1 | 2
O=C(CSc1n[nH]c(-c2ccco2)n1)Nc1sc2c(c1C(=O)Nc1ccccc1)CCCC2 | i | i | i | 1 | 6

The list continues:
SMILES | VCAM-1 up imaging | VCAM-1 inhibition | VCAM-1 imaging | FPR binder | FPRL1 ligand
CCS(=O)(=O)N1CCC(C(=O)NCCCN2CCN(c3ccccc3F)CC2)CC1 | . | . | . | -6 | 4
Cc1ccc(-n2c(Cc3cccn3C)nnc2SCC(=O)Nc2nnc(C)s2)cc1 | . | . | . | 3 | -3
Cc1nc(C)c2c(c1C(F)(F)F)-c1ccccc1C2(F)F | i | i | i | -6 | -4
Cc1nc2ccc(S(=O)(=O)NCC(=O)O)cc2s1 | i | i | i | -4 | 7
COc1ccccc1CNC(=O)c1cc2c(s1)CS(=O)(=O)C2 | . | . | . | -1 | 10
CCOC(=O)CN1CC23C=CC(O2)C(C(=O)Nc2ccc(F)cc2)C3C1=O (stereo unspecified) | . | . | . | -4 | 5
O=C(NCCCN1CCc2ccccc2C1)C1CCN(S(=O)(=O)N2CCCC2)CC1 | . | . | . | -1 | 2
CCOC(=O)Cn1nc(-c2ccccc2)ccc1=O | . | . | . | 1 | 4
CCOC(=O)C1CCN(S(=O)(=O)c2c(C)[nH]c(=O)[nH]c2=O)CC1 | . | . | . | 2 | -4
CCOC(=O)Cn1c(CN2CCOCC2)nc2c1c(=O)[nH]c(=O)n2C | i | i | i | -7 | -2
CCn1nnnc1SCC(=O)N1c2ccccc2CCc2ccccc21 | i | i | i | -9 | 5
CCOc1ccc(C(=O)Nc2c3c(nn2-c2ccc(C)cc2)CS(=O)C3)cc1OCC (stereo unspecified) | . | . | . | -3 | -4
COc1ccc(C(=O)NC(=O)CSc2nnc(-c3ccco3)n2-c2ccccc2)cc1 | i | i | i | -1 | -6
CCOC(=O)N1CCC(NC(=O)CC(NS(=O)(=O)c2ccc(Cl)cc2)c2ccco2)CC1 (stereo unspecified) | . | . | . | -1 | 1
COc1cc2c3c(c1)/C(=C1/SC(NC(C)=O)=NC1=O)C(=O)N3C(C)(C)C=C2C | i | i | i | 30* | 11
Cc1ccccc1N1C(N)=NC(N)=NC1(C)C | i | i | i | -2 | -6
COc1ccc(N(C(=O)C2CCCCC2)C2C=CS(=O)(=O)C2)c(OC)c1 (stereo unspecified) | . | . | . | -2 | 0
COc1ccc(OC)c(-c2cc(C(=O)Nc3cccc(Cl)c3)no2)c1 | . | . | . | -3 | -7
Clc1ccccc1-c1nnc2sc(-c3ccncc3)nn12 | . | . | . | -3 | -2
COc1cccc(C(=O)Nc2ccc(NC(=O)C(C)(C)C)cn2)c1 | i | i | i | -2 | 2
CCN(CCCNC(=O)Cn1ncc2c(=O)oc3ccccc3c21)c1cccc(C)c1 | . | . | . | 4 | 6
CCOC(=O)c1[nH]c(C)c(C)c1C | . | . | . | -5 | 0
Cc1c(Br)c(C(F)(F)F)nn1CC(=O)NCCN1CCOCC1 | i | i | i | -3 | 1
COc1ccc(N2Cc3cccc(C(=O)N4CCOCC4)c3C2=O)cc1 | . | . | . | -5 | 3
O=C(NC1CCCC1)C(NS(=O)(=O)c1cccc2nsnc12)c1ccccc1 (stereo unspecified) | i | i | i | -3 | -4
CC(=O)c1c(C)[nH]c(C(=O)NCc2cccs2)c1C | i | i | i | 0 | 0
Cc1cc(C)cc(N(CC(=O)N2CCn3c2nc2ccccc23)S(=O)(=O)c2c(C)noc2C)c1 | . | . | . | -1 | 8
CC(C)n1c(=S)[nH]c2c1c(=O)[nH]c(=O)n2C | . | . | . | -4 | 10
CCOc1ccc2[nH]c(C)cc(=O)c2c1 | i | i | i | -6 | -4
COC(=O)c1c(C)[nH]c(C)c1-c1ccccc1 | . | . | . | -6 | 2
COc1ccc(OC)c(NC(=O)C2CCC(CNc3c(N4CCC(C)CC4)c(=O)c3=O)CC2)c1 (stereo unspecified) | . | . | . | 3 | 12
Cc1noc(C)c1S(=O)(=O)N1CCC(C(=O)NCCC2=CCCCC2)CC1 | . | . | . | 0 | -5
CCCCN(CC)S(=O)(=O)c1ccc(C(=O)Nc2nnc(-c3ccccc3Cl)o2)cc1 | . | . | . | 12 | 7
CCc1nnc(SCC(=O)N2CCCc3ccccc32)nc1CC | . | . | . | 4 | -1
COC(=O)C1=C(C)NC(=O)C1(Nc1ccc(Cl)cn1)C(F)(F)F (stereo unspecified) | i | i | i | 5 | 7
CC1CC(=O)N(CC(=O)N2CCCC2)c2ccccc2S1 (stereo unspecified) | . | . | . | -13 | 7
O=C(c1cnn2c(C(F)F)cc(C3CC3)nc12)N1CCOCC1 | i | i | i | -3 | 6
COc1cc(C2C(C#N)=C(N)OC3=C2C(=O)CC(C)(C)C3)ccc1OC(=O)N1CCOCC1 (stereo unspecified) | i | i | i | 0 | 3
Cn1c(=O)c2cc(S(=O)(=O)NCCC(=O)NC3CCCCCCC3)ccc2n(C)c1=O | . | . | . | 3 | -4
O=C(Cn1c(=O)n(-c2ccccc2)c(=O)c2sccc21)N1CCCC1 | . | . | . | -2 | 0
Cc1ccccc1-n1nc(C)c2cc(C(=O)NCc3cccnc3)sc21 | i | i | i | 0 | -2
COCCNC(=O)CSc1nc2ccccc2c2nc(C)nn12 | . | . | . | 1 | 0
N#Cc1nc(-c2cccs2)oc1NCc1ccc(Cl)cc1 | i | i | i | -4 | -11
Cc1c(Cl)cccc1NC(=O)CCN1CCCCCC1 | i | i | i | -4 | -1
CC(NC(=O)Cc1cccs1)C(c1cccs1)N1CCN(c2ccccc2)CC1 (stereo unspecified) | . | . | . | 1 | -2
CCOC(=O)N1CCN(Cc2nc3c(c(=O)[nH]c(=O)n3C)n2Cc2cc(C)ccc2C)CC1 | i | i | i | 1 | 3
COc1ccc(CC(=O)Nc2cc(Cl)ccc2O)cc1 | i | i | i | 3 | -4
O=C(OCc1nnc(-c2ccccc2)o1)C1=COCCO1 | i | i | i | -1 | -3
Cc1ccc(S(=O)(=O)NCc2ccc(C(=O)N(C)CCC#N)cc2)cc1 | . | . | . | 3 | 8
COc1ccccc1-n1c(C)nnc1SCC(=O)Nc1cccc(C(C)=O)c1 | i | i | i | 9 | 2

Overlap with the part before: 6 entries; new compounds follow.
SMILES | VCAM-1 up imaging | VCAM-1 inhibition | VCAM-1 imaging | FPR binder | FPRL1 ligand
CC(NC(=O)Cc1cccs1)C(c1cccs1)N1CCN(c2ccccc2)CC1 (stereo unspecified) | . | . | . | 1 | -2
CCOC(=O)N1CCN(Cc2nc3c(c(=O)[nH]c(=O)n3C)n2Cc2cc(C)ccc2C)CC1 | i | i | i | 1 | 3
COc1ccc(CC(=O)Nc2cc(Cl)ccc2O)cc1 | i | i | i | 3 | -4
O=C(OCc1nnc(-c2ccccc2)o1)C1=COCCO1 | i | i | i | -1 | -3
Cc1ccc(S(=O)(=O)NCc2ccc(C(=O)N(C)CCC#N)cc2)cc1 | . | . | . | 3 | 8
COc1ccccc1-n1c(C)nnc1SCC(=O)Nc1cccc(C(C)=O)c1 | i | i | i | 9 | 2
Cc1ccc2nc(NC(=O)C3CCN(S(=O)(=O)c4ccc5c(c4)oc(=O)n5C)CC3)sc2c1 | . | . | . | -19 | -17
CCOC(=O)N1CCN(c2nc(-c3ccc(OC)cc3)no2)CC1 | . | . | . | 5 | -3
COc1ccc(C)cc1NC(=O)CSc1nnc(-c2ccc(C)cc2)o1 | . | . | . | 2 | 2
O=C1c2ccccc2C(O)N1c1cccnc1 (stereo unspecified) | . | . | . | 1 | -3
CC1(C)CC(=O)C2=C(C1)OC(N)=C(C#N)C2C1CC=CCC1 (stereo unspecified) | i | i | i | 8 | 1
O=C(Cn1c(=O)sc2ccccc21)NCCOc1ccccc1F | i | i | i | 3 | 10
Cc1ccc(N2CC(C(=O)N3CCN(C(=O)c4ccco4)CC3)CC2=O)cc1 (stereo unspecified) | i | i | i | -2 | -11
CC1CCCCC1NC(=O)CN1CCN(Cc2ccccc2Cl)C1=O (stereo unspecified) | i | i | i | 1 | 1
CCOc1ccccc1NC(=O)CN(c1ccc(C)cc1)S(=O)(=O)c1c(C)noc1C | i | i | i | -1 | -4
CC1CCN(CCNC(=O)c2ccc3c(=O)n(CCc4ccccc4)c(=O)[nH]c3c2)CC1 | . | . | . | -3 | -5
COc1ccc(C)cc1Nc1cc(C)nc2ncnn12 | . | . | . | 0 | 1
CC1CCCC(C)N1CCNC(=O)CCn1nc(-c2ccccc2)ccc1=O (stereo unspecified) | . | . | . | -6 | 0
Cc1ccc(Cn2c(CN3CC(C)OC(C)C3)nc3c2c(=O)[nH]c(=O)n3C)cc1 (stereo unspecified) | . | . | . | -6 | 6
COc1ccc(OC)c(NC(=O)Cn2cccc2)c1 | . | . | . | 3 | 1
CCOC(=O)c1ccc(Oc2nc(SC)nc(N(C)C)n2)cc1 | i | i | i | -2 | 14
COc1cccc2cc(NC(=O)C3CCCCC3)c(=O)oc12 | . | . | . | 1 | 17
COC(=O)c1ccc(Oc2c(C)oc3c(CN4CCN(C)CC4)c(O)ccc3c2=O)cc1 | . | . | . | 2 | -4
COc1ccc(-n2nc3cc(C)c(N)c(Br)c3n2)cc1 | i | i | i | 0 | -8
